NPYLR7 ag: activates Aedes aegypti NPYLR7 receptor; HEK293T NPYLR7/Galpha15, GCaMP6s calcium fluorescence; activation, % at 10 µM; hit rate 0.15% among 270,000; AID 1259423; in the data active = activation above about 40%;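 also: 0% = vehicle and 100% = reference agonist at the receptor; some compounds past the cut are filed as inactive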
NPYLR7 ag max-min: further read-out of NPYLR7 ag, marked with its call; activation, %; measured here: Max-Min RFU normalised activation; some inactives read as strong as hits;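 span of the calcium signal over five minutes; 0% = vehicle and 100% = native peptide agonist; compound fluorescence can raise it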
* = called active by the depositor; & = joins results of further samples. This is a subset; the hit share may differ from the screen's.

Order of results: NPYLR7 ag | NPYLR7 ag max-min
- O=C(NC(c1ccc(F)cc1)c1ccc(SCc2ccccc2)cc1)C(c1ccccc1)C1CCCCC1 (stereo not given)
→ -5 | -8
- CSCCNCc1c(C(=O)N2CCOCC2)nc2c(C)cccn12
→ 7 | 14
- CCC1CN(C(=O)OCc2ccccc2)C(CC)CN1 (stereo not given)
→ 13 | 9
- Cc1ccc(C(C)(C)C)cc1SCc1ccn(C)c(=O)c1
→ 6 | 5
- CCN(Cc1ccc(F)c(F)c1)C(=O)c1cccc2c1OCO2
→ 4 | -6
- CC(=O)Nc1ccsc1C(=O)N1CCCC2(CC1)CN(C)C(=O)O2 (stereo not given)
→ -4 | -8
- CCCCCCc1ccc(C(=O)N2CCC(c3ccccc3)CC2)cc1
→ -10 | -16
- COc1ccc(OC)c(-c2nnc(NC(=O)CSc3nnc(N)s3)s2)c1
→ 12 | 16
- COc1ccc2cc(CSc3[nH]c(=O)cc(C)c3C#N)c(Cl)nc2c1
→ 9 | 6
- CCOCCCN(CC(=O)N1CCc2sccc2C1c1ccc(Cl)cc1Cl)C(=O)c1ccccc1OC (stereo not given)
→ -14 | -9
- O=C(NNC(=O)c1ccc(F)cc1F)c1cccc(O)c1
→ 14 | 13
- O=C(c1ccc(Cl)nc1)N1CCN(C(c2ccccc2)c2ccc(Br)cc2)CC1 (stereo not given)
→ -4 | -3
- Nc1nc(=S)n2c(n1)oc1ccccc12
→ 5 | 24
- N#CCCN1C[C@H]2COc3ccccc3[C@H]2N(C(=O)C2CC2)CCC1=O
→ 28 | 31
- CCOC(=O)CCCC(=O)N1CCN(c2ncccc2NC(=O)c2ccc3c(c2)OCO3)CC1
→ 28 | 16
- COCc1nc(C)nc(N2CCN(C(=O)N(C)C)CC2)c1Cc1cccc(Cl)c1
→ 9 | 20
- O=C(CCCc1cccs1)N1CCCC(CNS(=O)(=O)c2cccs2)C1 (stereo not given)
→ 21 | 9
- CC(C)CN1CCC(CNC(=O)c2ccc(N3CCCOCC3)nc2)C1 (stereo not given)
→ 5 | 2
- CC(C(=O)Nc1cccc(S(=O)(=O)N(C)C)c1)N(C)Cc1ccco1 (stereo not given)
→ -2 | -5
- CNC(=O)NC(=O)CCN(C)C1CCCCC1
→ 0 | -2

Brought forward from above: three entries, then new ones.
Order of results: NPYLR7 ag | NPYLR7 ag max-min
- CC(C)CN1CCC(CNC(=O)c2ccc(N3CCCOCC3)nc2)C1 (stereo not given)
→ 5 | 2
- CC(C(=O)Nc1cccc(S(=O)(=O)N(C)C)c1)N(C)Cc1ccco1 (stereo not given)
→ -2 | -5
- CNC(=O)NC(=O)CCN(C)C1CCCCC1
→ 0 | -2
- COc1cccc(C(NC(C)=O)c2nc(-c3cccc(C(=O)O)c3)cs2)c1 (stereo not given)
→ 5 | 1
- O=C(COc1ccccc1-c1nc2ccccc2o1)Nc1ccc(F)cc1
→ 29 | 31
- COc1cc2c(cc1OC)CN(S(=O)(=O)c1ccc(OC)c(N3CCN(S(=O)(=O)c4ccc(F)cc4F)CC3)c1)CC2
→ 19 | 8
- O=c1c2cc(-c3cccs3)nn2ccn1Cc1nc(-c2ccccc2Cl)no1
→ -2 | -5
- CC(NC(=O)c1ccco1)c1nc2ccccc2n1CCCCOc1ccccc1 (stereo not given)
→ -10 | -10
- COc1cc(C=Nn2c(-c3ccc(Cl)cc3)n[nH]c2=S)cc(OC)c1OC
→ -6 | -8
- CCCCCn1c(CN2CC(C)CC(C)C2)nc2c1c(=O)n(C)c(=O)n2C (stereo not given)
→ 4 | 19
- Cc1[nH]nc2nc(C(F)(F)F)cc(C(F)(F)F)c12
→ -1&-1 | -6&-1
- CC(=O)Nc1ccc(C(=O)N(Cc2ccccc2)C(C(=O)Nc2ccc(C)cc2)c2ccccn2)cc1 (stereo not given)
→ 2 | 9
- Cc1nn(-c2ccccc2)c2sc(-c3n[nH]c(=S)o3)cc12
→ 5 | 3
- COC(=O)c1ccc2c(c1)C(=O)/C(=C/c1ccc(N(C)C)cc1)O2
→ 1 | 11
- COc1ccc(C2SC(C)C(=O)N2CCO)cc1 (stereo not given)
→ 1 | -5
- Cc1ccc2nc(-c3ccc(NS(C)(=O)=O)cc3)sc2c1
→ 0 | 26
- COc1ccc(C(=S)N2CCCCC2)cc1
→ -1 | -2
- COC(=O)c1ccc(CSc2nc3c(c(=O)n2-c2ccccc2)SCC3)o1
→ -2 | -4
- O=C(c1ccc(-c2cc(Cl)ccc2Cl)o1)N1CCOCC1
→ 0 | 6
- Cc1cc(NC(=O)C(C)Sc2ccc3ccccc3c2)on1 (stereo not given)
→ 4 | 3
- CC(C)(C)c1cc(=O)n(-c2ccc([N+](=O)[O-])cc2)[nH]1
→ 15 | 8
- CC(=O)c1sc(C(C)(C)C)cc1NC(=O)c1c(O)c2ccccc2[nH]c1=O
→ 7 | 4
- CNC(=O)C1CCN(S(=O)(=O)c2ccc3c(c2)OCCO3)CC1
→ 0 | 5

Overlap with the part before: six compounds; new compounds follow.
Order of results: NPYLR7 ag | NPYLR7 ag max-min
- COC(=O)c1ccc(CSc2nc3c(c(=O)n2-c2ccccc2)SCC3)o1
→ -2 | -4
- O=C(c1ccc(-c2cc(Cl)ccc2Cl)o1)N1CCOCC1
→ 0 | 6
- Cc1cc(NC(=O)C(C)Sc2ccc3ccccc3c2)on1 (stereo not given)
→ 4 | 3
- CC(C)(C)c1cc(=O)n(-c2ccc([N+](=O)[O-])cc2)[nH]1
→ 15 | 8
- CC(=O)c1sc(C(C)(C)C)cc1NC(=O)c1c(O)c2ccccc2[nH]c1=O
→ 7 | 4
- CNC(=O)C1CCN(S(=O)(=O)c2ccc3c(c2)OCCO3)CC1
→ 0 | 5
- COc1ccc(/C=C/C(=O)NC(C)c2cnn(-c3ccccc3C)c2C)cc1OC (stereo not given)
→ -3&2 | -5&-3
- C=CCn1c(C2CC(=O)N(c3ccccc3OCC)C2)nc2ccccc21 (stereo not given)
→ 1 | -5
- Cc1c(C)n2c3c(=O)[nH]c(=O)n(C)c3nc2n1-c1ccc(C(F)(F)F)cc1
→ 0 | -1
- O=C(Cc1cccs1)N1CCCN(C(=O)CN2CCc3sccc3C2c2ccc(Cl)cc2)CC1 (stereo not given)
→ 13 | 6
- CNC(=O)c1cc(S(=O)(=O)Nc2cc(C)ccc2O)cs1
→ 2 | 1
- OC1(c2ccccc2)CC(=NC2=NN(c3ccccc3)CC2)C=C1c1ccccc1 (stereo not given)
→ 6 | 10
- COc1ccc(-n2c(SCc3ccccc3C#N)nnc2-c2ccc(F)cc2)cc1
→ 23 | 17
- O=C(NCCCn1cccn1)[C@H]1c2ccccc2C(=O)N(CCc2c[nH]c3ccccc23)[C@H]1c1ccccc1
→ -6 | -14
- Cc1cc(C(=O)OCCN=C2NS(=O)(=O)c3ccccc32)ccc1[N+](=O)[O-]
→ 4 | 6
- O=C(Nc1cccc(-c2ccc3nncn3n2)c1)C(c1ccccc1)c1ccccc1
→ -11 | -3
- O=C1CN(c2nc(-c3ccccc3)c3cc(Br)ccc3n2)c2ccccc2N1
→ 1 | 1
- CC12OC3(CCCCC3)C(C)(OC13CCCCC3)O2
→ -1 | -2
- CNCC(=O)N1CC(Oc2cccc(C)c2)C1
→ 2 | -3
- Cc1cc(OCC2CN(C(=O)CCc3ccco3)CCO2)ccc1Cl (stereo not given)
→ 22 | 31
- O=C(NCC(=O)N1CCN(S(=O)(=O)c2ccccc2)CC1)C1CCCCC1
→ -10 | -10
- CC(C)C(NS(=O)(=O)c1ccccc1)C(=O)N1CCN(c2ccccc2Cl)CC1 (stereo not given)
→ -14 | -15
- CCOC(=O)c1ccc(CSc2ncccc2C(=O)N(C)C)o1
→ 12 | 4
- O=C(NCCF)c1cncn1-c1ccc(-c2cc(C(F)(F)F)cc(C(F)(F)F)c2)cc1
→ 27 | 33
- c1ccc2c(c1)nnn2-c1cnccn1
→ -4 | 1
- Cc1cc(-c2c(-c3ccccc3)ncn2CCN2CCCOC2=O)n[nH]1
→ -4 | -5
- COC(=O)c1c(C)[nH]c(C(=O)O)c1C
→ -2 | 2

Pulled by compound from the entries so far (5):
Order of results: NPYLR7 ag | NPYLR7 ag max-min
- COc1ccc(-n2c(SCc3ccccc3C#N)nnc2-c2ccc(F)cc2)cc1
→ 23 | 17
- OC1(c2ccccc2)CC(=NC2=NN(c3ccccc3)CC2)C=C1c1ccccc1 (stereo not given)
→ 6 | 10
- O=C(NCCF)c1cncn1-c1ccc(-c2cc(C(F)(F)F)cc(C(F)(F)F)c2)cc1
→ 27 | 33
- CNC(=O)c1cc(S(=O)(=O)Nc2cc(C)ccc2O)cs1
→ 2 | 1
- O=C(NCCCn1cccn1)[C@H]1c2ccccc2C(=O)N(CCc2c[nH]c3ccccc23)[C@H]1c1ccccc1
→ -6 | -14

Entries of single compounds as entered above. Screens in order: NPYLR7 ag	NPYLR7 ag max-min
Cc1cc(OCC2CN(C(=O)CCc3ccco3)CCO2)ccc1Cl (stereo not given) is listed with 22	31
O=C1CN(c2nc(-c3ccccc3)c3cc(Br)ccc3n2)c2ccccc2N1 is listed with 1	1
COc1ccc(/C=C/C(=O)NC(C)c2cnn(-c3ccccc3C)c2C)cc1OC (stereo not given) is listed with -3&2	-5&-3
